VDR inhibitor: inhibitors of human vitamin D receptor | P11473 | VDR-SRC2-3 peptide fluorescence polarization, 2 h | Potency, µM, for inactives: max response, negative = inhibition, usual class: inhibitors | 0.93% of 400,000 active; active = well fitted inhibition curve with a large enough effect; inconclusive = small, poorly fitted or top-dose-only effect, or another doubt; inactive = no such curve, though single readings can be large or run the other way; also: series mostly up to about 120 µM
Target sequence (P11473 whole entry, looked up): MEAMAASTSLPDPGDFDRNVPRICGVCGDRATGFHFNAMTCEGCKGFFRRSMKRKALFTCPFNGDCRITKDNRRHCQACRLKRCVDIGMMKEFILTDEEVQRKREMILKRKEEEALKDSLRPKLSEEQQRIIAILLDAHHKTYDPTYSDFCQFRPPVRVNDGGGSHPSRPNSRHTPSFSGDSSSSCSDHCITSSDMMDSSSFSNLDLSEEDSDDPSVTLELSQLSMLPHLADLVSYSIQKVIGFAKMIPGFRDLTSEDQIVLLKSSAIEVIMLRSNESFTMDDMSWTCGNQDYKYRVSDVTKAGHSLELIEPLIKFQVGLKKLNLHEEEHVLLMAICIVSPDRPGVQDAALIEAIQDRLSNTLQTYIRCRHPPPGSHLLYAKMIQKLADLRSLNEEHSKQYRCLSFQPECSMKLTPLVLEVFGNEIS
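Two reagent solutions held at 4 deg C in the dark were dispensed, compounds pinned at 23 nl, and the mixture incubated 2 h at room temperature. Read-out: fluorescence polarization of VDR–SRC2-3 peptide binding.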
An asterisk follows results filed as active; ? = inconclusive; & = joins results of further samples. % is scaled to controls: 0 for no effect and ±100 for the full control effect; potency is read from the fitted curve at half-maximal effect. Some of the compounds tested (hit frequency here may not be typical).

VDR inhibitor | canonical_smiles
-3% | Cc1cnc(CNc2ccnc(-c3cccnc3)n2)cn1
3% | COC(=O)COc1ccsc1C(=O)OC
1% | O=S(=O)(c1cccc(C(F)(F)F)c1)N1CCC(c2nc3ccccc3[nH]2)CC1
0% | O=C(NCc1ccco1)c1ccc2ccccc2c1
4% | COc1ccc(NS(=O)(=O)c2ccc3c(c2)Cc2ccccc2-3)cn1
-16% | Cc1cc(C)c(C#N)c(N2CCN(C(=O)C3COc4ccccc4O3)CC2)n1 (configuration not stated)
-10% | CCCCCNC(=O)C1CCC(Cn2c(=O)c3sccc3n(CC(=O)NCc3cccc(OC)c3OC)c2=O)CC1 (configuration not stated)
15% | CCn1ccc2cc(S(=O)(=O)N3CCC(C(=O)NCC(C)c4ccccc4)CC3)ccc21 (configuration not stated)
-5% | COc1cccc(CSc2nnc(CSc3nc4nc(C)cc(C)n4n3)s2)c1
-9% | CC(=O)c1ccccc1NC(=O)CCN1C(=O)C2CCCCC2C1=O (configuration not stated)
0% | COc1cc(C(C[N+](=O)[O-])c2c(C)[nH]c3ccccc23)ccc1O (configuration not stated)
-4% | c1ccc(CN2CCN(C(c3ccccc3)c3nnnn3Cc3ccccc3)CC2)cc1 (configuration not stated)
8% | CN(c1ccc(C(=O)N2CCCCC2)cc1)S(=O)(=O)c1ccccc1
-19% | Cc1ccc(C)c(N/C(N)=N/c2nc(C)cc(C)n2)c1
8% | COc1cc2cc(C(=O)N(C)Cc3ccccc3)[nH]c2cc1OC
-9% | CCOc1ccccc1CN1C(=O)c2ccccc2C1C(=O)NC1CCCCCC1 (configuration not stated)
-4% | N#CC[C@H](Cc1ccccc1)N1CCN(Cc2ccccc2)CCC1=O
1% | O=C(CN1CCN(Cc2ccc3c(c2)OCO3)CC1)Nc1ccc(N2CCOCC2)cc1
9% | CCCS(=O)(=O)NCCc1csc2nc(-c3ccc(OC)cc3)nn12
? | Cc1cc(O)c(C(=O)/C=C/c2ccccc2Br)c(=O)o1
16% | CC(=O)Nc1cccc(Oc2ncnc3scc(-c4ccc(C)cc4)c23)c1
2% | CN1c2ccccc2C(C)(C)C12CC(c1cccc(S(=O)(=O)N3CCCC3)c1)=NO2 (configuration not stated)
7% | O=C(N/N=C/c1ccc(C(F)(F)F)cc1)c1ccc(O)cc1
-7% | CCC(=O)C1CCCN(C(=O)c2ccc(OC)c(OC3CCN(C(C)=O)CC3)c2)C1 (configuration not stated)
-29% | C=CCn1c2ccccc2c(=O)c2cc(C#Cc3ccccn3)ccc21

Rewritten bar-delimited: entries from further up
Structure | VDR inhibitor
Cc1cc(O)c(C(=O)/C=C/c2ccccc2Br)c(=O)o1 | ?
CC(=O)Nc1cccc(Oc2ncnc3scc(-c4ccc(C)cc4)c23)c1 | 16%
CN1c2ccccc2C(C)(C)C12CC(c1cccc(S(=O)(=O)N3CCCC3)c1)=NO2 (configuration not stated) | 2%
O=C(N/N=C/c1ccc(C(F)(F)F)cc1)c1ccc(O)cc1 | 7%
CCC(=O)C1CCCN(C(=O)c2ccc(OC)c(OC3CCN(C(C)=O)CC3)c2)C1 (configuration not stated) | -7%

(continued)
VDR inhibitor | canonical_smiles
-3% | CCC1(CC)C(=O)N(C)C(=O)NC1=NCc1ccccc1
-11% | COc1cccc(NC(=O)COc2ccc(N3CC(C(=O)NCC(C)C)CC3=O)cc2)c1 (configuration not stated)
3% | CCN(CC)CCCN=C1N[C@@H](c2cccc(C(F)(F)F)c2)C(C(=O)OC)=C(C)N1CC
-8% | N=c1c(C(=O)NCCN2CCOCC2)cc2c(=O)n3ccccc3nc2n1CCCN1CCOCC1
-2% | CCc1nnc(NC2=NCCC2)s1
-9% | CCOC(=O)C(C(=O)Nc1ccc(C)cc1)C1CCCCC1 (configuration not stated)
1% | Cc1ccccc1NS(=O)(=O)c1cc(C(=O)NCCC2=CCCCC2)ccc1C
0% | Cc1cccc(NC(=O)CN2CCCN(S(=O)(=O)c3ccc(Br)s3)CC2)c1
? | O=C1CSC(=S)N1N=Cc1c(O)ccc2ccccc12
0% | CC(=O)C1=C(c2ccccc2)NC(=O)NC1c1ccc(O)c(Cl)c1 (configuration not stated)
40µM* | O=C1NN(c2ccccc2)C(=O)/C1=C/c1coc2ccccc2c1=O
-1% | O=C1CCCCCN1C(=O)c1ccccc1
14% | O=C1C=CC(=O)N1Cc1ccccn1
10% | COc1ccc(CN2CCN(C(=O)c3ccc4nc(N5CCOCC5)sc4c3)CC2)c(OC)c1OC
-6% | O=c1[nH]c2ccccc2nc1Cc1ccc(Cl)cc1
-2% | Cc1csc2nc(SCC(=O)Nc3ccccc3F)[nH]c(=O)c12
-6% | O=C(c1ccc(Cl)c(S(=O)(=O)N2CCCCCC2)c1)N1CCN(CCO)CC1
-8% | CCC(C)(C)C1CCC2(CC1)NC(=O)N(CC(=O)N(C)CCOc1ccc(Cl)cc1)C2=O (configuration not stated)
2% | COc1cccc2c1cc1c(=O)n(CC(=O)NCCCc3ccccc3)nc(C)n12
-5% | CCOc1ccc2nc(SCC(=O)c3ccc(C)s3)sc2c1
-10% | Cc1cc(N)n2ncc(-c3ccc(F)cc3)c2n1
7% | COc1ccc(-c2cc(C(=O)N3CCN(c4ccccn4)CC3)c3ccccc3n2)cc1
3% | CCOc1ccc(/C=N/NC(=O)c2ccc(Cn3cc(Br)cn3)o2)cc1
15% | CCc1ccc(CNC(=O)c2ccc(NC(=O)N3CC(C)Sc4ccccc43)cc2)cc1 (configuration not stated)
-14% | Cc1ccccc1C(=O)c1cccn1CC(=O)O

In the list so far, 3 have an aryl thioether with sulfur outside any ring.
VDR inhibitor | canonical_smiles
-5% | COc1cccc(CSc2nnc(CSc3nc4nc(C)cc(C)n4n3)s2)c1
-2% | Cc1csc2nc(SCC(=O)Nc3ccccc3F)[nH]c(=O)c12
-5% | CCOc1ccc2nc(SCC(=O)c3ccc(C)s3)sc2c1

(next part)
VDR inhibitor | canonical_smiles
-1% | CCCCC(=O)Nc1cc(C)c(NC(=O)c2ccco2)cn1
6% | COc1ccc(/C=C/C(=O)OC2CCCN(C)C2)cc1 (configuration not stated)
-1% | c1cncc(-c2noc(C34CC5CC(CC(C5)C3)C4)n2)c1
9% | Cc1cccn2c(=O)c(C=NCCO)c(NCc3ccco3)nc12
-8% | O=C(COc1ccc2ccc(=O)oc2c1)Nc1c(Cl)cccc1C(F)(F)F
-7% | FC(F)(F)c1cnc(COc2cc(Cl)cc(Cl)c2)c(Cl)c1
11% | CCCn1c(=O)[nH]c(=O)c2c1nc(-c1ccc(OC(F)F)c(OC)c1)n2CCOC
-5% | O=C(NCc1ccco1)C1(c2ccccc2)CCCC1
-9% | COc1cc(/C=N/N2CCN(c3ccccc3)CC2)cc(OC)c1OC(C)=O
8% | CC(C)(C)c1ccc(-c2nc(NCc3cccnc3)c3ccccc3n2)cc1
2% | CNC(=O)c1c[nH]c2ccc(S(=O)(=O)Nc3cccc(Cl)c3C)cc2c1=O
8% | Cn1nc([N+](=O)[O-])nc1Oc1ccc(C(C)(C)C)cc1
7% | Cc1ccc(S(=O)(=O)N2CCC(=O)N(CCOCc3cccc(C(F)(F)F)c3)CC2)cc1
-4% | CSC(=NCc1ccco1)NC#N
1% | CCOc1cc(-c2nc(C)c(C(C)=O)n2O)ccc1OCC(=O)Nc1cccc(C)c1
-8% | Cc1cc(Cl)ccc1N(CC(=O)NCc1ccc2c(c1)OCO2)S(C)(=O)=O
-11% | CC1(OC(=O)c2ccco2)C(=O)C=C2C=C(c3ccc(C#N)cc3)OC=C2C1=O (configuration not stated)
-8% | CCc1ccc(NC(=O)CCc2nnc3ccc(N4CCC5(CC4)OCCO5)nn23)cc1
1% | CC(=O)c1cnc2cc(-c3cccc(Br)c3)nn2c1C
-14% | Cc1ccc(C(=O)C(C)N(C(=O)c2ccc(Cl)cc2Cl)N2C(=O)CCCC2=O)cc1 (configuration not stated)
-24% | COC(=O)c1c(NC(=O)c2ccc(S(=O)(=O)N3CCOCC3)cc2)sc2c1CCN(C(C)C)C2
3% | COc1ccc2c(c1)CN(C)S(=O)(=O)c1ccccc1-2
4% | CCCCC(=O)Nc1ccc(NC(=O)c2cccs2)cn1
8% | Brc1ccc(-c2csc(NC3=NCCCCC3)n2)cc1
-5% | Cc1noc(C)c1C(=O)N1CCC2(CCN(C(=O)Nc3ccccc3)CC2)CC1

Some of the entries so far, with bars between the fields:
molecule | VDR inhibitor
COc1ccc(/C=C/C(=O)OC2CCCN(C)C2)cc1 (configuration not stated) | 6%
CCc1ccc(NC(=O)CCc2nnc3ccc(N4CCC5(CC4)OCCO5)nn23)cc1 | -8%

The listing continues.
VDR inhibitor | canonical_smiles
-2% | C=CCOc1c(Br)cc(/C=C2\SC(=Nc3ccccc3)NC2=O)cc1OC
-13% | S=C(NCc1ccco1)N1CCN(c2ccccn2)CC1
11% | Nc1[nH]ncc1-c1ccc(F)cc1
-11% | COc1cnc(SCc2c(Cl)cccc2Cl)nc1Cl
-10% | CC(C)(C)OC(=O)N(CCc1ccccc1)Cc1ccc(OCc2cccc(NC(=O)C3CCC3)c2)cc1
2% | Cc1c(C(=O)N/N=C/c2ccccc2)sc(=S)n1C
9% | O=C(CN1C(=O)c2ccccc2C1=O)NC1CCCCCC1
1% | Nc1ncc(C(=O)O)c(-c2ccccc2)n1
-5% | CC(C)N(Cc1ccccc1)C(=S)Nc1ccc(OC(F)F)cc1
-14% | CCOc1ccc(C(=O)N(CC(=O)Nc2cccc(C)c2C)CC2CCCO2)cc1OC (configuration not stated)
0% | C=CCOC(=O)C1=C[C@H](C2CCCCC2)[C@@H](CCCO)[C@H](OCC)O1
-8% | Cc1cc(F)ccc1S(=O)(=O)Nc1ccccc1C(=O)NC1CCN(Cc2ccccc2)CC1
-13% | COc1ccc(S(=O)(=O)N2CCCC2CNC(=O)C(=O)Nc2ccc(F)cc2)cc1 (configuration not stated)
7% | COC(C(=O)Nc1ccnn1C1CCN(Cc2nccs2)CC1)c1ccccc1 (configuration not stated)
2% | COc1ccc(N2CCN(C(=O)C(C)n3nc(C)c4sc5ccccc5c4c3=O)CC2)cc1 (configuration not stated)
0% | OCC(O)[C@@H](O[C@H]1O[C@H](CO)[C@@H](O)[C@H](O)[C@H]1O)[C@H](O)[C@@H](O)CO (some centres not stated)
-11% | COc1ccc(C2c3[nH]c4ccccc4c3C[C@H]3C(=O)N(c4ccccc4C(=O)N4CCC[C@@H]4C(=O)O)C(=O)N23)cc1 (some centres not stated)
-2% | Cc1cc(C(=O)N/N=C/c2ccc3c(c2)OCO3)c(C)o1
13% | Cc1ccc2cccc(OCCOCCOc3ccccc3Br)c2n1
-2% | CCOc1ccc(CNC(=O)CSc2c3c(nc4cc(Cl)ccc24)CCCC3)cc1
? | COc1ccc(C(=O)/C=C/c2cccnc2)c(OC)c1
-3% | CN(CC(=O)Nc1cccc(F)c1)CC(=O)NC(c1ccccc1)c1ccccc1
0%&-9%&12% | CC(=O)N[C@@H](CSC/C=C(\C)CCC=C(C)C)C(=O)O
9% | Cc1c(N2C(=O)c3ccccc3C2(O)c2ccccc2)c(=O)n(-c2ccccc2)n1C (configuration not stated)
-18% | COc1ccc(N(CC(=O)N/N=C/c2cc(OC)ccc2OC)S(=O)(=O)c2ccccc2)cc1
-19% | Cc1cccc(C)c1NC(=O)CN(C)C(=O)c1ccccc1C(=O)N(C)Cc1ccccc1
? | COc1ccc(Oc2ccc(/C=C/C(=O)c3cccc(OC)c3)cc2[N+](=O)[O-])cc1
8% | CC(C)OC(=O)c1ccc(Cn2nnc3ccccc3c2=O)cc1
1% | CC1(C)CC(=O)C(C=NCCN2CCN(C(=O)CCl)CC2)=C(O)C1
-24% | COc1ccccc1-c1nccc(-n2ccnc2)n1
-1% | Cc1cc(C)c2c(c1)cc(C)c1nnc(SCC(=O)N3CCCc4ccccc43)n12
-2% | Cc1cc(N)n(-c2ccc(C)c(C)c2)n1
6%&4% | CC(=O)c1ccc(S(=O)(=O)N2CCC(Oc3ccc(-n4cnnn4)cc3)CC2)cc1
5% | CCc1nccn1CCC(=O)N1CCc2c([nH]c3ccccc23)C1CC(C)C (configuration not stated)
1% | Cc1ccc(C(=O)Nc2ccc(S(=O)(=O)Nc3cnc4ccccc4n3)cc2)cc1
9% | CCOc1ccc(CCNC(=O)CCSCc2cccc(Cl)c2)cc1OCC
0% | CC(CN1CCN(Cc2ccccc2)CC1)OC(=O)c1ccco1 (configuration not stated)
4% | CC(=O)c1cc2c(C)cc(=O)oc2cc1O
9% | O=C(OCc1nc(-c2ccccc2)oc1COC(=O)c1ccco1)c1ccco1
-10% | COc1ccccc1C(C)NCC(=O)NCc1ccc(C)cc1 (configuration not stated)
7% | Cc1ccc(-c2nc3ccccc3[nH]c2=O)cc1
1% | Cc1cc(CN2CCCCC2C(=O)Nc2ccc(Oc3cccnc3)cc2)oc1C (configuration not stated)
-9% | CC(C)OCCCNc1nc2c([nH]1)c(=O)n(C)c(=O)n2C
-2% | CC(=O)[C@@]1(O)[C@H](O)CC2C3CCC4CC(O)CC[C@]4(C)C3CC[C@@]21C (some centres not stated)
-22% | Cc1ccc(C)c(S(=O)(=O)N2CCN(C(=O)c3n[nH]c(=O)c4ccccc34)CC2)c1
-24% | CCCc1c(O)nc(SCC(=O)N2CCCCC2)[nH]c1=O
-21% | COc1ccc(C(=O)CSc2ccc(-c3ccco3)nn2)cc1
-5% | N#Cc1c(NCCO)ccc([N+](=O)[O-])c1NCCO
-4% | O=C(c1cn(CC(=O)N2CCCC2)c2ccccc12)C1CCCCC1
5% | CCOC(=O)C(CC)n1cnc2c(cnn2-c2ccc(Cl)cc2)c1=O (configuration not stated)
8% | Cc1cccn2c(=O)c(C=Nc3ccccc3)c(NCCO)nc12
5% | Nc1ccc(-n2c(N)c(C(=O)NCc3ccc4c(c3)OCO4)c3nc4ccccc4nc32)cc1
